Assay outcomes from PubChem BioAssay.
Polio RdRp inh – inhibitors of poliovirus RNA polymerase binding and polymerization | poliovirus polymerase elongation, fluorescence polarization; active compounds read low | % elongation, % (compound at 16.7 µg/mL) | hit rate 0.66% among 150,000 | AID 588519; in the data active = % elongation below about 90%; note: some results filed as inactive read as strong as hits
Target sequence (P03300 1749-2209 limits assumed): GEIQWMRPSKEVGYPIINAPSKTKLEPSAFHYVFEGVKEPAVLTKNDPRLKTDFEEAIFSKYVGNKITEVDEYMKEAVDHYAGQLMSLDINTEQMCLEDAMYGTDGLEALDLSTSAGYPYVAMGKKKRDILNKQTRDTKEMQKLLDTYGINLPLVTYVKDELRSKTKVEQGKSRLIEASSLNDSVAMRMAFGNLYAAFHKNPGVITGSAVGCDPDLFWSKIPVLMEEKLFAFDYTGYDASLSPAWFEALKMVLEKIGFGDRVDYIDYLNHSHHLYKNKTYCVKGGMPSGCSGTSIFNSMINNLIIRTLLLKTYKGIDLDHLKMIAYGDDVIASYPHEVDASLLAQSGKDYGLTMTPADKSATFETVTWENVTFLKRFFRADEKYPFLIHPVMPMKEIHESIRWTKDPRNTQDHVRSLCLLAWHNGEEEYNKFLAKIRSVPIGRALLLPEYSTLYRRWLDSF
Polio RdRp inh intensity – also measured in Polio RdRp inh; calls as there; % elongation; measured here: total intensity read-out; formula for this scale not given here;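 total fluorescence in place of polarization; lower means less elongation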
Starred values were filed as active, the others as inactive.

SMILES | Polio RdRp inh | Polio RdRp inh intensity
COc1ccc(CN2CCc3nc(N4CCN(c5ccc(F)cc5)CC4)ncc3C2)c(OC)c1OC | 98 | 96
Cc1cccc(C)c1-n1ncc(C(=O)N2CCN(c3ccccn3)CC2)c1C1CCN(C(=O)OC(C)(C)C)CC1 | 102 | 106
Cc1ccc(-n2ncc3c(N4CCCCC4)ncnc32)cc1 | 109 | 112
COc1ccc(NC(=O)CN2C(=O)COc3ccc(S(=O)(=O)NC4CCCC4)cc32)cc1OC | 108 | 111
CCOC(=O)c1cnn(-c2cccc(F)c2)c1C1CCNCC1 | 104 | 105
Cc1ccccc1Nc1nn2c(=O)c3ccc(C(=O)NCC(C)c4ccccc4)cc3nc2s1 (configuration not stated) | 106 | 111
CN(Cc1ccccc1)C(=O)C1CCN(Cc2cc3ccccc3n2Cc2ccccc2)CC1 | 111 | 109
Cc1ccc(C(CC(=O)NCC2(c3ccccc3)CCCC2)c2ccccc2)c(O)c1 (configuration not stated) | 101 | 101
CCc1ccc(CNC(=O)CCCn2ccc3cc(S(=O)(=O)N4CCCC4)ccc32)cc1 | 113 | 112
O=C(CSc1nc(-c2ccccc2)no1)N1CCCCC1 | 106 | 107
Cc1cc(Nc2cccc(Cl)c2)nc2ccc(NC(=O)Cc3c(F)cccc3Cl)cc12 | 100 | 102
CCc1ccc(NC(=O)Cn2c(=O)n(CCC(C)C)c(=O)c3cccnc32)cc1 | 104 | 107
O=C(Cn1c(=O)n(-c2ccc(F)c(Cl)c2)c(=O)c2sc3ccccc3c21)NC1CCCCC1 | 107 | 109
O=C(Nc1cc(C(F)(F)F)ccc1Cl)c1ccc2c(c1)CCN2S(=O)(=O)c1ccccc1 | 112 | 112
COc1ccc(OC)c(CNC(=O)c2cc(S(=O)(=O)N3CCC(C)CC3)cn2C)c1 | 103 | 105
CC1CCCN(CCCNC(=O)c2cc3c(Cl)nc4ccccc4c3s2)C1 (configuration not stated) | 102 | 106
COc1ccc(-c2nc(Cn3c(=O)cc(C)c4c(C)nn(-c5ccccc5)c43)c(C)o2)c(OC)c1 | 106 | 111
CC(=O)c1cccc(NC(c2ccc(F)cc2)c2nnc(-c3ccccc3)o2)c1 (configuration not stated) | 100 | 104
O=S(=O)(NCC(Nc1ccc(Cl)cc1)c1ccccc1)c1ccccc1 (configuration not stated) | 109 | 112
O=C(Nc1ccc(F)cc1F)C1CCN(S(=O)(=O)c2ccc3[nH]c(=O)ccc3c2)CC1 | 115 | 110
COc1ccc(C2=NC(c3ccncc3)=Nc3ccc(Br)cc3N2)cc1 | 101 | 102
CCn1ccc2c(OCC(=O)Nc3ccccc3C)cccc2c1=O | 115 | 104
O=C(COc1ccccc1[N+](=O)[O-])Nc1cc(-c2nc3cc(Cl)ccc3o2)ccc1Cl | 105 | 109
Cc1ccc(C(=O)N2CCc3cc(CNS(=O)(=O)c4cccs4)ccc32)cc1 | 113 | 114
COc1ccc(NC(=O)CC2C(=O)N(c3ccc(C)cc3)C(=O)N2CCc2ccccc2)cc1 (configuration not stated) | 107 | 109
Cc1ccc2nc(-c3ccc(Cl)c(NC(=O)COc4cccc(C)c4C)c3)oc2c1 | 94 | 98
Fc1ccc(CNCCCSc2nnnn2-c2ccccc2)cc1 | 103 | 97
CCc1ccc(OC(C)C(=O)N2CCC(c3nc4ccccc4s3)CC2)cc1 (configuration not stated) | 103 | 107
CCN(CC)C(=O)Cn1c(=O)n(-c2ccc(Cl)c(Cl)c2)c(=O)c2c(C)c(C(=O)N(CC)CC)sc21 | 109 | 114
Cc1c(C(=O)OC2CCCC2)[nH]c2c1C(=O)CC(c1ccc(Cl)cc1)C2 (configuration not stated) | 106 | 111
CCOc1ccc(CNC(=O)CCC(=O)N2CC3CCCN3c3ccccc32)cc1 (configuration not stated) | 104 | 107
Cc1oc(-c2ccccc2F)nc1CS(=O)CC(=O)NC(C)C (configuration not stated) | 104 | 106
Cc1cccc(NC(=O)CS(=O)(=O)c2nc(-c3ccccc3)cn2-c2cccc(Cl)c2)c1C | 109 | 108
C=C(C)Cn1c(SCC(=O)c2ccc(OC)cc2)nc2sc3c(c2c1=O)CCCC3 | 103 | 98
CCN(CC)c1ccc(NS(=O)(=O)c2ccc3c(c2)CCCN3C(C)=O)c(C)c1 | 112 | 113
Cc1cc(C)c(S(=O)(=O)n2cnc(C)c2)c(C)c1 | 108 | 104

Single entries from the list:
Reading of Cc1cccc(NC(=O)CS(=O)(=O)c2nc(-c3ccccc3)cn2-c2cccc(Cl)c2)c1C in Polio RdRp inh intensity: 108
Reading of CC(=O)c1cccc(NC(c2ccc(F)cc2)c2nnc(-c3ccccc3)o2)c1 (configuration not stated) in Polio RdRp inh: 100

(next part)
SMILES | Polio RdRp inh | Polio RdRp inh intensity
CCOC(=O)c1ccc(NC(=O)c2c(NCc3cccc(OC)c3)sc3c2CCC3)cc1 | 120 | 123
CSc1ncc(C(=O)NCc2ccc(Cl)cc2)c(C(F)(F)F)n1 | 104 | 108
O=S(=O)(c1ccccc1)c1nc(-c2cccs2)oc1SCc1ccc(F)cc1 | 106 | 111
Cc1cccc(N2CCN(C(=O)CCS(=O)(=O)c3ccc4c(c3)CC(=O)N4C)CC2C)c1 (configuration not stated) | 110 | 109
Cc1cc(NC(=O)CN(C)S(=O)(=O)c2ccc3c(c2)CCCC(=O)N3)ccc1Br | 105 | 110
CC(C)c1ccc(NC(=O)Cn2c(=O)oc3cc(S(=O)(=O)N4CCCC4)ccc32)cc1 | 107 | 110
COc1ccc(NC(=O)N2CCC(CN3CCCC3)CC2)c(OC)c1 | 117 | 118
Cc1ccc(S(=O)(=O)NCCc2nnc3ccc(SCC(=O)Nc4ccc(OC(F)(F)F)cc4)nn23)cc1 | 113 | 115
CN(C)c1ccc(C(CNS(=O)(=O)c2ccc(F)cc2)N2CCCC2)cc1 (configuration not stated) | 107 | 99
COc1ccc(N2CCN(C(=O)c3cccc(NC(=O)c4nsc5ccccc45)c3)CC2)cc1 | 100 | 98
CCOc1ccc(CCNC(=O)C2CCN(Cc3nc(-c4ccccc4C)oc3C)CC2)cc1OCC | 110 | 110
CCOC(=O)c1sc(N2C(=O)c3oc4cc(C)c(C)cc4c(=O)c3C2c2ccc(C)cc2)nc1C (configuration not stated) | 104 | 95
CCOc1ccc(NC(=O)Cn2c(=O)n(Cc3ccccc3)c(=O)c3c4c(sc32)CN(C(C)=O)CC4)cc1 | 107 | 112
CC(C)Oc1ccc(C(=O)Nc2ccc3c(c2)CCCN3C(=O)c2cccs2)cc1 | 107 | 111
Cc1sc2c(c1C)c(=O)n(-c1ccc(Cl)cc1)c(=O)n2Cc1cc(=O)n2ccccc2n1 | 108 | 113
COc1cc(OC)cc(C(=O)N2CCN(C(=O)COc3ccccc3)CC2)c1 | 107 | 110
CCOC(=O)c1c(C)[nH]c(C)c1S(=O)(=O)N1CCC(C(=O)N2CCN(c3cccc(Cl)c3)CC2)CC1 | 110 | 109
COc1cccc(NC(=O)CC(=O)Nc2ccc3nc4n(c(=O)c3c2)CCCCC4)c1 | 113 | 112
COC(=O)c1ccccc1-n1cc2c(c1-c1cccc(C)c1)c(=O)n(C)c(=O)n2C | 109 | 113
CCc1ccc(CNC(=O)C2CCN(C(=O)c3ccc(-n4c(C)cc5ccccc54)s3)CC2)cc1 | 103 | 106
COc1cccc(C2CC(=O)Nc3c2c(=O)n(C)c2nc4ccccc4n32)c1 (configuration not stated) | 105 | 110
O=C(c1ccc2c(c1)N(Cc1cccc(Cl)c1)C(=O)c1ccccc1S2=O)N1CCN(c2cccc(C(F)(F)F)c2)CC1 (configuration not stated) | 101 | 104
O=c1c2sc3ccccc3c2n(Cc2ccccc2F)c(=O)n1Cc1ccccc1 | 104 | 108
Fc1ccc(Cc2cn3cc(-c4ccccc4)nc3s2)cc1 | 103 | 108
Cc1ccc(NC(=O)CSc2nc3c(oc4ccccc43)c(=O)n2Cc2ccco2)cc1 | 104 | 110
CCCn1c(CCC(=O)Nc2ccc(OCC)cc2)nc2cccnc21 | 109 | 110
Cc1ccc(NC(=O)CSc2nc(-c3cccs3)nc3cc(=O)[nH]n23)cc1C | 102 | 106
CCCN(CCC)C(=O)Cn1c(=O)n(-c2ccc(C)c(C)c2)c(=O)c2c3c(sc21)CCCCC3 | 103 | 105
Cc1cc(=O)[nH]c2nnc(SCc3cccc(F)c3)n12 | 105 | 107
CC(C)c1ccc(/C=C(\C#N)c2nc(-c3ccc(O)cc3)cs2)cc1 | 105 | 105
Nc1nonc1-c1nc2ccccc2n1CC(=O)Nc1cccc(C(F)(F)F)c1 | 124 | 127
Cc1cccc(C)c1NC(=O)c1sc(-n2nc(C)c(Cc3ccc4c(c3)OCO4)c2C)nc1C | 102 | 97
Cc1ccc(C)c(NC(=O)N2CCC(CN3CCOCC3)CC2)c1 | 106 | 102
CCc1ccc(NC(=O)c2sc3nc(C)c(Cl)c(C)c3c2NC(=O)c2ccccc2)cc1 | 105 | 106
CN1CCN(C(=O)C(=O)Nc2c3c(nn2-c2ccc(Cl)cc2)CSC3)CC1 | 108 | 106
CCN1CCN(c2ncc3c(n2)CCN(Cc2ccc(OC)c(OC)c2)C3)CC1 | 109 | 111

2 entries picked at random from those above, as already listed:
SMILES | Polio RdRp inh | Polio RdRp inh intensity
Cc1ccc(NC(=O)CSc2nc3c(oc4ccccc43)c(=O)n2Cc2ccco2)cc1 | 104 | 110
COc1ccc(C2=NC(c3ccncc3)=Nc3ccc(Br)cc3N2)cc1 | 101 | 102

Carrying on.
SMILES | Polio RdRp inh | Polio RdRp inh intensity
COCCCNC(=O)CSc1nc2cc(OC)c(OC)cc2c2nc(-c3ccccc3)nn12 | 107 | 107
Cc1cc(Nc2ccccc2C)n2nc(Cc3ccc(Cl)cc3)nc2n1 | 110 | 114
CC(=O)Nc1ccccc1OCc1cc(=O)n2c3c(sc2n1)CCCC3 | 103 | 99
O=C(CSc1nccn1Cc1ccc(F)cc1)NCc1ccco1 | 109 | 110
Fc1ccccc1N1CCN(c2c3c(nc4nncn24)CCC3)CC1 | 112 | 117
Cc1ccc(-c2nc(CS(=O)CC(=O)N3CCN(c4ccccc4)CC3)c(C)o2)cc1 (configuration not stated) | 105 | 104
Cc1ccc(C)c(NC(=O)c2cc(S(=O)(=O)N3CCN(c4cccc(Cl)c4)CC3)ccc2F)c1 | 103 | 101
COc1cc(OC)c(NC(=O)Nc2cccc(OCc3cc(=O)n4ccccc4n3)c2)cc1Cl | 98 | 112
Cc1ccc(COC(=O)c2[nH]c3c(c2C)C(=O)CC(c2ccc(N(C)C)cc2)C3)cc1 (configuration not stated) | 105 | 105
O=C(CCNS(=O)(=O)c1ccc2c(c1)CCN2C(=O)C1CC1)N1CCN(c2ccccc2F)CC1 | 107 | 105
O=C(CSc1nc(-c2ccc(F)cc2)[nH]c1-c1ccccc1)NCC1CCCO1 (configuration not stated) | 108 | 109
COc1ccc(-n2cc(C(=O)OCc3ccc(F)c(F)c3)c3ccccc3c2=O)cc1 | 103 | 101

Structural class: those above containing a furan ring, fused or not.
SMILES | Polio RdRp inh | Polio RdRp inh intensity
Cc1ccc(NC(=O)CSc2nc3c(oc4ccccc43)c(=O)n2Cc2ccco2)cc1 | 104 | 110
O=C(CSc1nccn1Cc1ccc(F)cc1)NCc1ccco1 | 109 | 110

Other records:
SMILES | Polio RdRp inh | Polio RdRp inh intensity
Cc1ccc2c(c1)c(=O)c1ccccc1n2CCCC(=O)Nc1ccc(Cl)cc1C | 107 | 106
O=c1cc(-c2ccccc2)n2c(SCc3ccc([N+](=O)[O-])cc3)nnc2[nH]1 | 103 | 100
Cc1cc(Nc2ccc(C)c(C)c2)n2cnnc2n1 | 102 | 98
CCc1ccccc1NS(=O)(=O)c1ccc(-c2coc(C)n2)cc1 | 105 | 102
COc1ccc(CCNC(=O)c2cnc3sc(N4CCC(C)CC4)nn3c2=O)cc1OC | 105 | 110
CC(C)c1ccc(NC(=O)Cn2cc(S(=O)(=O)Cc3ccccc3Cl)c3ccccc32)cc1 | 106 | 111
CC(C)(C)OC(=O)N1CCC(c2c(C(=O)NC3CCN(Cc4ccccc4)CC3)cnn2-c2ccc(F)cc2F)CC1 | 114 | 116
Cc1ccc(CNc2ncnc3c2c(-c2ccccc2)cn3-c2ccccc2)cc1 | 101 | 103
Cc1ccccc1NC(=O)CCc1c(C)nc2c(c1C)c(=O)n(C)c(=O)n2C | 106 | 110
COc1ccc(Cl)cc1NC(=O)CN(C)S(=O)(=O)c1ccc2c(c1)CCCN2C(C)=O | 110 | 107
Cc1ccccc1N(C)S(=O)(=O)c1nnc(NC(=O)C(C)C)s1 | 105 | 108
CCOc1cc(CNCCSc2nnnn2C)cc(Cl)c1OCc1ccc(Cl)cc1 | 105 | 101

Next section (4 carried over from the part before).
SMILES | Polio RdRp inh | Polio RdRp inh intensity
Cc1ccccc1NC(=O)CCc1c(C)nc2c(c1C)c(=O)n(C)c(=O)n2C | 106 | 110
COc1ccc(Cl)cc1NC(=O)CN(C)S(=O)(=O)c1ccc2c(c1)CCCN2C(C)=O | 110 | 107
Cc1ccccc1N(C)S(=O)(=O)c1nnc(NC(=O)C(C)C)s1 | 105 | 108
CCOc1cc(CNCCSc2nnnn2C)cc(Cl)c1OCc1ccc(Cl)cc1 | 105 | 101
COCCCNC(=O)CSc1nc(-c2ccc(OC)cc2)[nH]c1-c1ccc(OC)cc1 | 107 | 107
COc1ccc(C2=NC(C)(C)N(CC(=O)Nc3ccc(F)c(F)c3)C2=O)cc1 | 105 | 115
CCc1ccc(S(=O)(=O)N(C(=O)Oc2ccccc2)c2ccc3oc(C)c(C(=O)OC)c3c2)cc1 | 103 | 105
Cc1cccc(Cn2c(SCc3ccc(C(=O)N4CCCCCC4)cc3)nc3ccncc32)c1 | 100 | 104
COc1ccc(CNC(=O)c2cc3cccc(OC)c3oc2=O)cc1 | 100 | 103
CCOC(=O)c1ccccc1NC(=O)Cn1c(=O)n(Cc2nc(-c3ccccc3)no2)c(=O)c2ccccc21 | 107 | 107
COc1ccc(S(=O)(=O)N(CC(=O)NCCSc2ccccc2)c2ccc(C)cc2)cc1 | 101 | 102
Nc1c(-c2nc(-c3cccs3)no2)nnn1-c1cccc(Cl)c1 | 106 | 110

Only part of the results is shown; rates above refer to the full screens.
